Screening results: PubChem BioAssay, several laboratories
GALR2 agonist: GALR2 (human) receptor agonism. 140,000 tested, 0.48% active. activation, %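 (tested at 5 µM)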. O43603. AID 803. GALR2-expressing cells, agonist activation read-out;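 active = above mean plus 3 SD of all compounds, about 5% in these data, not always enough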;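 note: 0% = vehicle buffer wells and 100% = reference agonist at full effect; tested in CHO reporter cells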
Target sequence (O43603 whole entry, looked up): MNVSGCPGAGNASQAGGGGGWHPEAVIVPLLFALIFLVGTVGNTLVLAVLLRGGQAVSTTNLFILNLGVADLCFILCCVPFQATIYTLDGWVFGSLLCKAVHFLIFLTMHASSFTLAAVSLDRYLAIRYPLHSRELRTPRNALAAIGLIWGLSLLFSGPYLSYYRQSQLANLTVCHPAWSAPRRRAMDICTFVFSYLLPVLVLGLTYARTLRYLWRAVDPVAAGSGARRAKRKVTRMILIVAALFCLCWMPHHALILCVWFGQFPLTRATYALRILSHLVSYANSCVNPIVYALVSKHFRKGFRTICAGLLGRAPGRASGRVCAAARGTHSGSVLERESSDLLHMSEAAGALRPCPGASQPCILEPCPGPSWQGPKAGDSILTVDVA
Insulin prom inh: TRM-6 insulin promoter activity inhibition; 130,000 tested, 0.9% active; inhibition, % at 2 µM; TRM-6 cells (human fetal islet line), insulin promoter-eGFP reporter, imaging; reporter expression induced with tamoxifen; AID 1273;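 active = inhibition above the mean plus 3 SD, with well images judged a real hit on visual review, cut at about 60% in these data, passing the limit was not always enough; inconclusive = inhibition over the cutoff but images rejected on review; inactive = inhibition not above the cutoff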
HSV replic up: increases HSV replication in cells. HSV replication augmentation in cells, fold increase. maximum fold increase. 220,000 tested, 0.005% active. AID 1956;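 active = peak rise of 1.5-fold or more in the series; inconclusive = self-fluorescent or not available for retest; tested in PC3 cells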;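 note: first round at 10 µM; read as green reporter fluorescence; hits show the peak of a series up to 25 µM; 1 = signal of infected wells without compound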
PKD1 inh: PKD1 (human) kinase inhibition. Q15139. PKD1 kinase fluorescence polarization assay. inhibition, %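 (about 10 µM by stock and volumes)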. 200,000 tested, 0.056% active. AID 797;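 active = inhibition of 50% or more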;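 note: controls were vehicle for no effect and a reference inhibitor for full effect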
RGS16-Gao: modulates binding between human RGS16 and Galphao. bead-based flow cytometry RGS16-Galphao binding, fluorescence; actives lie on both sides. 220,000 tested, 0.38% active. AID 1441. binding response (% of control), % at 10 µM;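 active = below 25% or above 175%, edge rows of some plates excepted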;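 note: Galphao activated by GDP with aluminum fluoride before binding; 100% = wells without compound and 0% = beads without RGS; some results beyond the cut were filed as inactive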
Target sequence (O15492 whole entry, looked up): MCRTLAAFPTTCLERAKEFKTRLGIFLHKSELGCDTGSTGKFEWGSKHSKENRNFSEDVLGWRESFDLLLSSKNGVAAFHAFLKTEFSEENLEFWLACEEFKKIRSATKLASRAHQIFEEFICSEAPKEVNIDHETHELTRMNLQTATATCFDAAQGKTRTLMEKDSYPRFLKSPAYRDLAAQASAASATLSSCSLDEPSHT
Target sequence (P09471 whole entry, looked up): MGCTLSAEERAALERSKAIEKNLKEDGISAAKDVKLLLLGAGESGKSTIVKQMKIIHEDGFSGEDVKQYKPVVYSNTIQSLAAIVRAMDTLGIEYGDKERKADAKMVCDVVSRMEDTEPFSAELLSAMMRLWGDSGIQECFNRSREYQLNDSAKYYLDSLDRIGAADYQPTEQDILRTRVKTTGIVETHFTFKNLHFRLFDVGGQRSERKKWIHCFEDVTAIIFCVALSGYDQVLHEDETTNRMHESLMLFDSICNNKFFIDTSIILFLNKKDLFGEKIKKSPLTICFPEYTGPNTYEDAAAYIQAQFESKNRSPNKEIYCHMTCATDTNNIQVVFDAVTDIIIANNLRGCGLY
Insulin prom inh cell count: also measured in Insulin prom inh; calls as there; normalized cell count, %; measured here: cell count, toxicity; reference of the scale not given here;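 cells exposed to compound for 48 h; stained nuclei by imaging scaled within each plate; lower means fewer cells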
HSV replic up primary fold: also measured in HSV replic up; calls as there; fold increase; compound at 10 µM; measured here: primary screen fold increase 10 uM; tested in PC3 cells;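 GFP signal in the first replicate; 1 = infected wells without compound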
* marks the source's active call; other numbers are inactive results; i = inactive; ? = inconclusive; nt = not tested or not shown. No enrichment for hits; about 1.2% have a hit in one of these screens.

SMILES	GALR2 agonist	Insulin prom inh	Insulin prom inh cell count	HSV replic up	HSV replic up primary fold	PKD1 inh	RGS16-Gao
O=C(C(=O)N1CCN(c2cccc(Cl)c2)CC1)N1CCCCC1	nt	-20	83	i	1	-8	99
O=C(O)CCn1c(SCc2ccccc2)nc2ccccc21	-1.9	-32	137	i	0.86	-7	i
O=c1[nH]c2cc(Cl)cc(Cl)c2[nH]c1=O	-2.2	-15	105	i	0.87	-3	88
O=C(O)C1CSC2(c3ccc(Br)cc3)CCC(=O)N12 (stereo unspecified)	nt	11	114	i	0.99	-5	100
CC(C)COP(=O)(c1ccc(N(C)C)cc1)C(Nc1ccccc1)c1cccnc1 (stereo unspecified)	-0.9	-3	145	i	0.79	0	103
CN1CCN/C1=C(/C(Cl)=C(Cl)Cl)[N+](=O)[O-]	nt	nt	nt	i	0.95	-3	106
CN1CCc2c(c3c(n2C)CCN(C)[C@H]3c2ccccc2F)[C@@H]1c1ccccc1F	-1.2	nt	nt	i	0.92	-5	103
CC(C)C1C(c2ccccc2)N(C)C(c2ccccc2)CC1(O)c1ccccc1 (stereo unspecified)	-1.8	nt	nt	i	0.95	-4	103
CCCCCn1c(=O)[nH]c2cc(C(=O)O)ccc2c1=O	-0.1	nt	nt	i	1.1	1	99
CC(=O)N1CC(=O)N(OCc2ccccc2)C1c1ccc(Cl)cc1Cl (stereo unspecified)	-1.1	3	103	nt	nt	-1	116
CC(C)CCNC(=O)CN(CC1CCCO1)C(=O)CCC(=O)Nc1nccs1 (stereo unspecified)	-1.3	nt	nt	i	0.82	-10	98
CCn1cc(C(=O)O)c(=O)c2cc(F)c(N3CCN(C(=S)NC(=O)c4ccc(F)c(F)c4)CC3)cc21	nt	nt	nt	i	0.98	2	101
COc1cccc(NC(=O)Nc2ccc(CC(=O)O)cc2)c1	nt	nt	nt	i	1.2	-2	99
O=C(NCCc1ccccc1)c1ccc(CS(=O)(=O)c2ccc(Cl)cc2)o1	nt	nt	nt	i	0.9	-5	92
O=C(COc1ccccc1)Nc1ccc([N+](=O)[O-])cc1	0.7	-103	117	i	1.1	-11	103
CNc1ccccc(-c2ccc3cc4c(cc3n2)OCO4)c1=O	0.0	-15	156	?	nt	-13	100
CC1N(C)c2cc(NC(=O)c3cccs3)c(P(=O)(Nc3ccc([N+](=O)[O-])cc3)N3CCOCC3)cc2C1(C)C (stereo unspecified)	nt	nt	nt	i	0.78	0	99
CCN(c1ccccc1)S(=O)(=O)c1ccc(OC)c(NC(=O)Cn2cnc3c2c(=O)n(C)c(=O)n3C)c1	nt	56	105	i	0.77	-10	96
CCNc1nc(NCC)n2c(SCC(=O)O)nnc2n1	-2.3	nt	nt	i	1.1	-5	99
CCCOc1ccccc1Cn1c(=O)oc2ccc(C)cc21	0.0	19	57	i	0.99	4	102
Cc1ccc(-c2cc(C(F)F)n3ncc(C(=O)NN4CCCCC4)c3n2)cc1	nt	nt	nt	i	0.82	-5	100
CCOC(=O)N(C)c1ccc(C(O)(C(F)(F)F)C(F)(F)F)cc1	-1.4	13	72	i	0.87	2	101
CS(=O)(=O)NCCSc1cc(C(F)(F)F)nc2ccccc12	nt	nt	nt	i	1.1	nt	99
Cc1ccc2c(c1)c1c3n2CCN(C(=O)C2CC2)C3CCC1 (stereo unspecified)	-1.6	nt	nt	i	1.1	-9	98
COc1cccc(C(=O)Nn2c(-c3cccs3)nc3ccccc3c2=O)c1OC	-0.2	-47	99	i	0.96	-9	107

(list continues)
SMILES	GALR2 agonist	Insulin prom inh	Insulin prom inh cell count	HSV replic up	HSV replic up primary fold	PKD1 inh	RGS16-Gao
COc1ccc(CN(Cc2ccco2)S(=O)(=O)c2ccc(S(=O)(=O)N3CCCC3)cc2)cc1	-1.6	7	127	i	0.87	6	104
COc1ccc(N2CCN(CC(O)COCCOc3ccc(Br)cc3)CC2)cc1 (stereo unspecified)	-1.8	8	102	i	0.7	-9	108
Cc1c(N)cccc1-n1cccc1	nt	nt	nt	i	0.9	2	107
O=S(=O)(/N=C(/Nc1ccccc1)c1ccccc1O)c1ccccc1	nt	nt	nt	i	1	-7	101
CC(NC(=O)CNC(=O)OCc1ccccc1)C(=O)N1CC(O)CC1C(=O)OCc1ccccc1 (stereo unspecified)	-3.7	7	101	i	1	-1	99
COC(=O)CCNC(=O)c1ccc2[nH]c(C)c(C)c2c1	nt	nt	nt	i	1	-5	102
Cc1cc(OCCN2CCCC2)ccc1[N+](=O)[O-]	0.4	0	87	nt	nt	-4	126
COc1cccc(NC(=S)NC(=O)c2c(Cl)c(C)nn2C)c1	-1.0	-29	185	i	0.77	3	101
O=C(c1ccc(-c2ccccc2)cc1)c1ccccc1C(=O)N1CCOCC1	-1.0	21	87	i	0.75	-2	99
Cc1cccc(-c2c3c(=O)n(C)c(=O)n(C)c3cn2C(C)C)c1	-0.6	nt	nt	i	0.99	4	111
COCCNC(=O)c1sc2nc(-c3ccccc3)cn2c1C	-1.3	-30	97	nt	nt	0	108
Cc1cc(C)c2c(N)c(C(=O)c3ccc(Br)cc3)oc2n1	nt	nt	nt	i	0.92	nt	104
COC(=O)C(NC(=O)c1ccc(C)cc1)(Nc1cccc(C)n1)C(F)(F)F (stereo unspecified)	0.2	-19	95	i	0.83	-15	105
Cn1nc(-c2ccc(N3CCN(CCO)CC3)c([N+](=O)[O-])c2)c2ccccc2c1=O	nt	24	217	i	0.86	-1	115
CC1=CC(=C(C#N)c2nc3ccccc3s2)C=C(C)N1c1ccc(F)cc1F	0.8	nt	nt	?	nt	4	99
CCOC(=O)CSc1ncnc2c(C(=O)OCC)c3n(c12)CCC3	-0.8	28	95	i	0.95	-10	100
COc1cccc(C2NC(c3cccc(OC)c3O)C(C)C(=O)C2C)c1O (stereo unspecified)	-1.2	-37	107	i	1.1	-1	117
O=c1[nH]snc1N1CCOCC1	nt	nt	nt	i	0.88	-3	102
C=CCc1cc(Cl)ccc1OCCOCCN(C)C	nt	nt	nt	i	0.92	-3	99
COC(=O)c1ccc(COn2c(=O)c(C)[n+]([O-])c3ccccc32)cc1	-0.4	-11	175	i	0.92	-9	101
O=C(CCNc1ccc(F)c(Cl)c1)c1ccco1	-1.5	-29	114	i	1.1	-3	94
Cc1cccnc1NC(=O)Nc1cccs1	-3.5	32	57	i	0.87	-5	101
COCCCNCC#CCOc1ccc(OC)cc1	nt	nt	nt	i	0.97	1	98
O=C(Nc1nnc(CCN2CCCCC2)s1)C1CCCCC1	-1.1	18	49	i	0.84	-2	102
O=C(NCc1ccco1)c1cc(-c2cccc(Cl)c2)on1	-1.6	nt	nt	i	1.1	-15	94

Carrying on:
SMILES	GALR2 agonist	Insulin prom inh	Insulin prom inh cell count	HSV replic up	HSV replic up primary fold	PKD1 inh	RGS16-Gao
COc1ccc(C(=O)NC(=S)Nc2ccc(CN3CCCCC3)cc2)cc1Cl	nt	nt	nt	i	0.83	-4	101
COCc1cc(N2CCOCC2)nc(SCc2ccc(Cl)cc2)n1	nt	29	92	i	0.85	-7	106
CC(C)C(=O)Nc1nnc(CCN2CCOCC2)s1	-1.0	-34	160	i	0.86	-1	119
O=C(CSc1ncnc2c1oc1ccccc12)OCc1ccccc1	-0.9	nt	nt	i	0.89	-5	103
O=C(OCc1cccc2ccccc12)C1CC(=O)N(c2ccccc2)C1 (stereo unspecified)	-0.9	54	125	i	0.92	-3	116
CC(=O)CCCCn1cnc2c1c(=O)n(C)c(=O)n2C	nt	nt	nt	i	0.89	nt	103
O=c1c2cc3ccccc3n2cnn1Cc1ccccc1F	-1.0	nt	nt	i	0.78	-3	100
COC(=O)c1cccc(S(=O)(=O)N2CCN(c3nc4ccccc4s3)CC2)c1	-1.4	25	163	i	0.96	-1	106
COc1cc(/C=N/NC(=O)c2cnccn2)cc(OC)c1OC	0.7	nt	nt	i	0.89	1	105
COc1ccc(C2C=C(C34CC5CC(CC(C5)C3)C4)NC(=S)N2)cc1OC (stereo unspecified)	-1.2	30	102	i	0.97	3	98
O=C(COC(=O)CCSc1ccccc1Cl)NCc1ccco1	nt	-47	79	i	0.89	-7	102
O=C1c2cccc(OCC(=O)N3CCCc4ccccc43)c2CCN1Cc1ccccc1	0.0	nt	nt	i	0.92	6	97
CCc1ccc(C(=O)c2oc3nc(C)cc(C)c3c2N)cc1	1.4	21	57	i	0.91	-2	74
COc1ccc(CCN2C(=O)NC(NS(=O)(=O)c3ccc(N)cc3)(C(F)(F)F)C2=O)cc1OC (stereo unspecified)	-0.8	-10	75	i	0.97	-5	102
Cc1ccc(NC(=O)CN2C(=O)NC3(CCC(C)CC3)C2=O)c(Cl)c1 (stereo unspecified)	0.9	nt	nt	i	0.91	0	101
Cc1cccc(C)c1NC(=O)CSc1nnc(-c2ccoc2C)n1C	-1.1	8	118	i	0.92	2	101
Cc1ccc(NC(=O)c2ccc(F)c(S(=O)(=O)N3CCOCC3)c2)cc1F	-1.7	nt	nt	i	1	-1	105
CCCCOc1ccc(C(=O)N2CC(C)OC(C)C2)cc1 (stereo unspecified)	-0.9	35	66	i	1	-7	94
O=C(Cc1ccc([N+](=O)[O-])cc1)N1CCCCCC1	nt	-56	73	i	0.89	1	109
Cc1cc(F)ccc1NCc1cccnc1	-1.9	-22	94	i	0.99	-7	104
COc1cc(C=Nc2cccc([N+](=O)[O-])c2C)ccc1OC(C)=O	-2.3	15	117	i	0.97	-10	111
CC(C)(C)SCCNC(=O)/C=C/c1ccc([N+](=O)[O-])cc1	-2.3	56	94	i	0.93	1	102
Cc1cc(C)n2ncc(C(=O)NCc3ccc(Cl)cc3)c2n1	1.9	4	100	i	0.87	3	103
Cc1cc(C)c[n+](-c2nc3ccccc3nc2[N-]S(=O)(=O)c2ccc(Cl)cc2)c1	-0.2	52	134	?	nt	4	102
CCOC(=O)c1ccc(NC(=O)CCS(=O)(=O)c2ccc(Br)s2)cc1	-2.0	-12	111	i	0.83	-4	103

Fetched one by one from the list above (four):
SMILES	GALR2 agonist	Insulin prom inh	Insulin prom inh cell count	HSV replic up	HSV replic up primary fold	PKD1 inh	RGS16-Gao
Cc1cc(C)n2ncc(C(=O)NCc3ccc(Cl)cc3)c2n1	1.9	4	100	i	0.87	3	103
COc1ccc(C(=O)NC(=S)Nc2ccc(CN3CCCCC3)cc2)cc1Cl	nt	nt	nt	i	0.83	-4	101
O=C(CSc1ncnc2c1oc1ccccc12)OCc1ccccc1	-0.9	nt	nt	i	0.89	-5	103
CC(C)C(=O)Nc1nnc(CCN2CCOCC2)s1	-1.0	-34	160	i	0.86	-1	119

Single records, from the list above. Values in the order: GALR2 agonist, Insulin prom inh, Insulin prom inh cell count, HSV replic up, HSV replic up primary fold, PKD1 inh, RGS16-Gao
COC(=O)c1cccc(S(=O)(=O)N2CCN(c3nc4ccccc4s3)CC2)c1 is entered as -1.4, 25, 163, i, 0.96, -1, 106
COCc1cc(N2CCOCC2)nc(SCc2ccc(Cl)cc2)n1 is entered as nt, 29, 92, i, 0.85, -7, 106
O=C1c2cccc(OCC(=O)N3CCCc4ccccc43)c2CCN1Cc1ccccc1 is entered as 0.0, nt, nt, i, 0.92, 6, 97
Cc1cc(C)c[n+](-c2nc3ccccc3nc2[N-]S(=O)(=O)c2ccc(Cl)cc2)c1 is entered as -0.2, 52, 134, ?, nt, 4, 102

Additional results.
SMILES	GALR2 agonist	Insulin prom inh	Insulin prom inh cell count	HSV replic up	HSV replic up primary fold	PKD1 inh	RGS16-Gao
COc1cc(/C=N/NC(=O)c2ccccc2)ccc1OS(=O)(=O)c1ccccc1	-0.6	nt	nt	i	0.7	2	111
COc1ccc2nc(Nc3nc(CSc4nnc(C)s4)cc(=O)[nH]3)nc(C)c2c1	-0.9	44	87	i	0.78	-5	77
CCc1ccccc1NC(=O)Cn1nnc(C(=O)NCc2cccs2)c1N	nt	-60	83	i	0.8	-2	102
Cc1cc(C)c(NC(=O)CN2CCN(C)CC2)c(C)c1	nt	nt	nt	i	0.93	-12	102
CCOc1ccc(NC(=O)CC2C(=O)N(c3ccccc3)C(=O)N2Cc2ccco2)cc1 (stereo unspecified)	nt	-61	127	i	1.2	-5	99
COc1ccc2c(c1)CC/C(=C\C=C\c1ccccc1)C2=O	-3.8	-150	66	i	0.97	-8	103
Cc1ccccc1NC(=S)NC(NC(=O)c1ccco1)C(Cl)(Cl)Cl (stereo unspecified)	-1.5	-26	106	i	0.95	6	100
O=C(Nc1cc([N+](=O)[O-])ccc1F)c1cccs1	-1.8	14	88	i	0.88	1	106
COc1ccc(NC(=O)C(c2ccc(OC)cc2)N(Cc2ccco2)C(=O)CC2NC(=O)NC2=O)cc1 (stereo unspecified)	nt	27	129	i	0.91	-3	105
CC(C)CN(C(=O)CN1CCN(S(=O)(=O)c2ccc3ccccc3c2)CC1)c1c(N)n(CC(C)C)c(=O)[nH]c1=O	-1.2	10	99	i	0.96	0	101
COc1ccccc1C(=O)OCC(=O)Nc1ccccc1OC(F)F	nt	nt	nt	i	0.82	nt	100
